Source: PubChem BioAssay
RN4220 kill = S. aureus RN4220 growth inhibition | OD600, 16 h | inhibition, % (no concentration beside the values) | 330,000 tested, 0.33% active;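 active means z-score of -3 or lower and OD600 up to 0.18 on both plates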;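 further: plate controls were untreated cells for no effect and reference antibiotic for full effect; stock transfer was 100 nL into about 80 µL; one replicate is shown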
Sa ugtP lethal = compounds lethal to S. aureus RN4220 ugtP deletion mutant | OD600 growth, 16 h; some inactives read as strong as hits | growth inhibition, % (concentration not given with the values) | 330,000 tested, 0.54% active;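 active means z-score under -3 and OD600 up to 0.15 on both plates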;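 further: plate controls were untreated wells for no effect and antibiotic for full effect; wells of about 80 µL received 100 nL stock; the first replicate is given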
Mtb hypoxia inh = reduces hypoxia-regulated biosensor signal in M. tuberculosis | AID 1159583 | fluorescence inhibition, % (concentration not given with the values) | M. tuberculosis hypoxia-regulated fluorescent reporter, fluorescence | 300,000 tested, 0.1% active;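 active means 35 to 45% if threefold the growth effect, above 45% if 1.5-fold the growth effect; inactive means the rest, general growth blockers included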;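 further: wells of about 50 µL received 100 nL stock; 0% = vehicle wells and 100% = reference inhibitor wells; whole bacteria with a GFP reporter of the hypoxia response; strong numbers were not always called active; many hits fall short of the cut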
PrP UTR inh = suppresses PrP 5' UTR mRNA reporter expression | cell-based PrP 5' UTR mRNA reporter, plate reader | inhibition, % (concentration not given with the values) | 340,000 tested, 0.35% active | AID 488862;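 active means every replicate at 50% or more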;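 further: 0 = median of the neutral control wells; tested in H4 reporter cells; numbers are from one replicate; inactives centre near -14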
Autofluor counter = flagged as autofluorescent in microsphere protease counterscreen. compound autofluorescence counterscreen, microsphere flow cytometry; active compounds read high. AID 624483. 360,000 tested, 3.1% active. fluorescence intensity (concentration not given with the values);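 active means at least 3 SD above the mean of all compounds, about 16000 in these data; inconclusive means too few beads counted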;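 further: 100 nL of 1 mM stock went into each well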
BJeLR lethal = BJeLR cell viability loss | BJeLR (HRASV12) viability, CellTiter-Glo ATP luminescence, 48 h; reference of the scale not given here | inhibition, % (no concentration beside the values) | 300,000 tested, 0.17% active | AID 1554;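 active means replicate mean above 50%; inconclusive means above 50% but judged a plate artefact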;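 further: 50 nL library stock added to about 25 µL; numbers are from one replicate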
Mtb hypoxia inh growth = also measured in Mtb hypoxia inh; calls as there; growth inhibition, %; measured here: M. tuberculosis growth (absorbance);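 0% = vehicle and 100% = reference antibiotic; read after six days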
The depositor's hits bear a star; ? = inconclusive; / = not tested or not shown; & = joins results of further samples.

SMILES	RN4220 kill	Sa ugtP lethal	Mtb hypoxia inh	Mtb hypoxia inh growth	PrP UTR inh	Autofluor counter	BJeLR lethal
CC(C)n1nnnc1SCC(=O)NCc1cccs1	6.8	7	/	/	-18	3558	7
COc1ccc(NC(=O)c2cccc(C#N)c2)cc1NS(=O)(=O)c1ccc(F)cc1	-4.0	10	-1	-5	-30	2319	19
Cc1ccc(S(=O)(=O)N2CCN(C(=O)CCCN3C(=O)NC4(CCCC4)C3=O)CC2)cc1C	4.7	11	7	-3	-16	6657	/
CCn1c(SCC(=O)NC2CC2)nnc1-c1ccc(C)cc1	-0.4	2	-1	1	-13	5286	1
O=C(/C=C/c1ccc2c(c1)OCO2)c1cccnc1	10	7	15	12	-5	3142	11
CCN(CC)CCN(Cc1cc2cc3c(cc2[nH]c1=O)OCO3)C(=S)NCCCOC	1.8	4	3	-8	-6	/	-5
c1ccc2c3c([nH]c2c1)-c1[nH]ncc1CC3	-3.3	-20	-6	-23	-39	10249	-8
CCOC(=O)C1CCN(C(=O)COc2ccc(Cl)cc2Cl)CC1	-12	-7	8	9	-10	2867	5
Cc1n[nH]c(=S)n(N=Cc2cccc([N+](=O)[O-])c2)c1=O	-3.2	-3	-2	-11	/	/	/
O=C(Cn1nnc2c(cnn2-c2ccc(F)cc2)c1=O)Nc1ccccc1C(F)(F)F	4.5	-1	6	11	-35	3106	1
CC1(C)c2[nH]c3ccccc3c2C[C@H]2C(=O)N(Cc3ccccc3)C(=O)N21	/	/	/	/	-31	4134	-5
CC12CCC(C(=O)N(CSC(=S)N/N=C\c3ccccc3)C1=O)C2(C)C (configuration not stated)	/	/	/	/	-18	4301	-7
Cc1oc(S(=O)(=O)N2CCCCC2)cc1NC(=O)Nc1ccc(Cl)cc1	0.7	-9	-1	1	-25	6152	2
Cc1nccc2oc(=O)c(NC(=O)c3ccc(Cl)cc3)cc12	2.7	3	5	-3	-36	4389	4
CC1CCCN(C(=O)c2ccc(OC3CCN(CCc4ccccc4)CC3)cc2)C1 (configuration not stated)	2.0	7	0	-7	-15	5379	13
CSCC[C@H](NC(=O)N1CCn2c1nc1ccccc12)C(=O)NCC1CCCO1 (some centres not stated)	0.0	4	2	7	-8	6171	6
COCCCn1c(=O)c2ccccc2n(Cc2cc(C(=O)OC)ccc2OC)c1=O	3.0	4	1	-7	-6	3814	-9
COc1ccc(C2=CC(=O)C[C@H](c3ccc(F)cc3)C2)cc1OC	-14	-13	1	12	-10	4320	/
CN(Cc1ccc(F)cc1)C(=O)c1cccc(S(=O)(=O)N2CCN(c3ccccc3)CC2)c1	2.1	3	5	-1	-8	4849	6
O=C(COC(=O)/C=C/c1cccc([N+](=O)[O-])c1)NCc1ccc2c(c1)OCO2	0.4	3	-9	4	-21	3753	-9
O=C(Cn1ncc2c(=O)oc3ccccc3c21)NCC1CCCO1 (configuration not stated)	-6.7	-3	4	12	-20	5486	-4
Cc1cnnn1-c1ccc([N+](=O)[O-])cc1	7.1	3	10	4	-25	4503	0
CCOC(=O)c1sc(/N=C/c2c(O)n(-c3cccc(C)c3)c(=O)[nH]c2=O)c(C#N)c1C	4.1	11	4	7	-11	2166	-2
CCOP(=O)(c1ccc(N(C)C)cc1)C(O)c1ccc(C)cc1 (configuration not stated)	2.8	1	-4	9	-20	3605	-1
CN1CCN(c2ncnc(Cl)c2N)CC1	7.3	13	8	0	25	4246	/
Going on with the list:
SMILES	RN4220 kill	Sa ugtP lethal	Mtb hypoxia inh	Mtb hypoxia inh growth	PrP UTR inh	Autofluor counter	BJeLR lethal
Cc1nnsc1C(=O)NC1CCCCC1	-0.2	-2	3	3	-17	11641	-8
CC(=O)c1cc(-c2ccccc2)n(CCC(=O)NCc2cccs2)c1C	2.2	0	/	/	-21	4421	-8
N#Cc1ccc(-c2ccc(Cl)cc2)nc1SCC(=O)c1cccc(Cl)c1	-0.2	-12	/	/	-17	2765	-4
COC(=O)c1cn(C(=O)c2cc(Br)ccc2Cl)c2ccccc12	5.6	1	16	5	-25	3811	-1
COc1ccc(-c2nnc(SCC(=O)N3CCCCC3)o2)c(OC)c1	2.1	10	5	6	-44	9851	3
Cc1occc1C(=O)N(C)Cc1nc(-c2ccccc2)no1	3.8	2	-3	10	-6	4023	-8
COc1ccc(-c2csc3ncnc(N4CCN(S(=O)(=O)c5ccc(C)c(C)c5)CC4)c23)cc1	-0.3	-8	-1	-9	-10	4887	6
COCc1ccc(CN2CCC(C(=O)Nc3cccc(-c4cscn4)c3)CC2)o1	1.7	0	4	0	3	7521	-4
COc1ccc(NC(=O)C/C(C)=N/NC(=O)c2cnccn2)c(OC)c1	/	/	/	/	-8	6018	-12
Cc1ccc(NC(=O)CCc2nnc3ccc(N4CCC(C)CC4)nn23)nc1	2.3	10	6	5	-20	6120	5
COc1ccc(-c2cc(N)n(CCC#N)n2)c(OC)c1	-0.6	2	/	/	-2	3967	2
O=C1C(c2ccncc2)N(CCC2=CCCCC2)C(=O)CN1C1CCCCC1 (configuration not stated)	3.4	0	-6	-2	-9	11065	-18
COc1ccc(-n2c(Cc3ccccc3)nnc2SCc2ccc([N+](=O)[O-])cc2)cc1	-2.1	-20	1	-7	7	2577	-1
O=C1NCC(c2ccccc2)N(CC2CCCCC2)C1=O (configuration not stated)	4.0	2	8	9	/	/	/
CCOC(=O)C1=C(C)N(CCCCCC(=O)O)C(=O)NC1c1ccc([N+](=O)[O-])cc1 (configuration not stated)	8.3	3	4	0	-17	2938	2
O=C(Nc1ccc(Cl)cn1)c1ccc2nccnc2c1	4.7	1	-4	-1	-29	7054	2
CCN1CCN(CCCNC(=O)Cn2nc(C)n3nc(-c4ccccc4)cc3c2=O)CC1	2.0	3	11	7	1	6440	-2
COCCNC(=O)COc1ncnc2scc(-c3ccc(F)cc3)c12	6.5	7	18	11	-32	4118	/
CCN(CC)C(=O)c1ccc(S(=O)(=O)N2CCC(c3nc4ccccc4s3)CC2)cc1	1.8	-5	0	4	-29	8368	-2
O=S(=O)(Nc1cccc(Br)c1)c1cccc2nsnc12	3.7	4	0	-1	-21	2803	-8
Cc1cc(NC(=O)C2CC(c3ccc(F)cc3)=NO2)no1 (configuration not stated)	3.4	6	9	6	-7	5903	5
CCOC(=O)N1CCC(NC(=O)CCc2nc(C3=CCN(C)CC3)no2)CC1	2.6&-6.1	1&-2	-6&9	1&9	6&-15	2657&3564	-2
O=C(COC(=O)CCc1ccccc1)Nc1ccc(F)cc1Cl	3.3	5	-2	-4	-10	4044	6
COc1cccc(/C=N/N2CCN(C)CC2)c1	/	/	/	/	-27	2073	0
CC(C)(C)NC(=O)C1CN(S(=O)(=O)c2ccccc2)CCN1S(=O)(=O)c1ccccc1 (configuration not stated)	-14	-3	5	3	-10	2804	10
Remaining list, next part
SMILES	RN4220 kill	Sa ugtP lethal	Mtb hypoxia inh	Mtb hypoxia inh growth	PrP UTR inh	Autofluor counter	BJeLR lethal
CC(NS(=O)(=O)c1ccc(Br)cc1)C(c1cccs1)N1CCOCC1 (configuration not stated)	-4.1	-7	9	9	-48	5264	14
CC(=NNC(=O)CCCCCNC(=O)c1ccccc1)c1ccccc1O	1.5	0	2	7	/	/	/
O=S(=O)(c1ccc2c(c1)OCCO2)N1CCN(c2cccc(Cl)c2)CC1	-4.3	0	/	/	-10	2593	15
COc1ccc(C(C)=O)cc1COC(=O)c1cc(=O)c2ccccc2o1	5.1	4	9	1	-11	6232	-6
Cc1ccc(C=NNC(=O)c2ccc3c(c2)OCCO3)s1	4.0	9	2	0	/	/	/
COc1ccc(C2C(C(=O)c3ccco3)=C(O)C(=O)N2CCCn2ccnc2)c(OC)c1 (configuration not stated)	4.8	12	2	-4	8	3140	6
CN(Cc1c(C(=O)N/N=C/c2cccc(F)c2)nnn1-c1nonc1N)c1ccccc1	/	/	/	/	-6	4510	4
O=C(O)C1CC1c1ccc(Br)cc1 (configuration not stated)	0.4	-2	3	15	-10	2915	2
Cc1cc(C)c(S(=O)(=O)N2CCCCC2)c(C)c1-n1ncnn1	4.7	2	18	11	-6	6710	3
CC1CN(C(C)CO)C(=O)c2cccc(NC(=O)C3CCCCC3)c2OC1CN(C)C(=O)Nc1ccccc1 (configuration not stated)	5.7	-2	14	9	/	/	/
COc1ccc(NS(=O)(=O)c2cc(NC(=O)C(CC(C)C)NC(N)=O)ccc2N2CCOCC2)cc1 (configuration not stated)	1.3	-1	-12	9	6	4093	/
O=C(/C=C/c1cccc(Br)c1)N1CCN(c2ccccn2)CC1	2.3	4	18	14	-9	4246	0
O=C(COC(=O)CCSc1ccc(Cl)cc1)NCc1ccccc1	4.1	10	-1	-1	-19	2601	-18
Cn1c(Nc2ccccc2)cc(=O)n(C)c1=O	2.3	2	14	-1	-38	3249	0
COc1ccc(N(C(=O)C(C)C)S(=O)(=O)c2cccs2)cc1	-0.6	0	5	15	-9	10977	14
Cc1nn(Cc2ccccc2)c(Cl)c1C(=O)OCC(=O)NC(=O)NC12CC3CC(CC(C3)C1)C2	-3.1	22	10	4	-21	2113	-11
O=C(CSc1nnc(Cc2ccccc2)o1)c1ccc2c(c1)OCO2	1.5	11	10	9	-17	?	-6
O=C(CNc1ccc(F)cc1)NN=C1CCCc2ccccc21	-6.1	-7	-3	-2	/	/	/
COc1ccc(NC(=O)CN(C)C(=O)c2ccc3c(c2)NC(=O)CS3)cc1	3.2	1	-3	2	-12	3514	/
COC(=O)C1=C(C)N(C)C(=O)NC1c1cccc2ccccc12 (configuration not stated)	1.7	4	5	-3	-8	4071	-12
CC(C)CCCN1C(Nc2ccccc2)=NCC1CC(C)C (configuration not stated)	3.3	-19	2	12	/	/	/
CCNc1c(NS(=O)(=O)c2ccc(OC)cc2)c(=O)oc2ccccc12	7.3	-9	7	6	-23	4100	-9
Cc1ccnc(NC(=O)C(C)N2C(=O)c3ccccc3S2(=O)=O)c1 (configuration not stated)	1.4	5	6	0	0	5568	4
Cc1ccc(-n2c(=O)c3c4c(sc3n3c(=S)[nH]nc23)CCC4)cc1	8.5	-1	1	4	-23	3479	-2
CCCSC1=C(C#N)C(c2ccccc2OCC)CC(=O)N1 (configuration not stated)	6.2	16	-1	-4	-11	23587*	-1
(continued)
SMILES	RN4220 kill	Sa ugtP lethal	Mtb hypoxia inh	Mtb hypoxia inh growth	PrP UTR inh	Autofluor counter	BJeLR lethal
Cc1ccc(Sc2c(CO)c(-c3ccccc3)nn2C)cc1	0.9	-2	-8	-2	73*	3360	29
COc1ccccc1NC(=O)Cn1c(=O)c(N(C)C)c(N)n(C)c1=O	0.9	0	4	3	-40	5069	-2
CC(=O)c1cccc(N(C(=O)CNC(=O)c2ccco2)C(C(=O)NC2CCCC2)c2ccco2)c1 (configuration not stated)	3.8	4	-11	0	-11	5550	-12
Cc1ccc(C(=O)OCC(=O)NC2CCCc3ccccc32)o1 (configuration not stated)	4.1	4	12	-2	-26	3082	/
O=C(NCCc1ccccc1)c1ccc(Cl)c(S(=O)(=O)N2CCOCC2)c1	-1.7	-2	-1	6	-15	3721	-4
Cc1ccc(N(CCC#N)C(=O)COC(=O)c2cc(C)no2)cc1	3.6	5	4	-1	-3	4427	-18
COCC=CC1=CC2=CC(=O)C(C)(OC(=O)c3cnc4ccccc4n3)C(=O)C2=CN1Cc1ccc(OC)cc1 (configuration not stated)	7.7	4	-3	5	/	/	/
CCOC(=O)C1CCCN(C(=O)CCNS(=O)(=O)c2ccc(Br)cc2)C1 (configuration not stated)	-0.3	-4	-14	-2	-22	3912	/
O=C(CSc1ccc(Cl)cc1)NNC(=O)c1ccco1	3.3	2	11	-14	-8	6471	-9
NC(=O)CSc1nnnn1CC(CC(=O)O)c1ccccc1 (configuration not stated)	6.5	9	6	6	4	6752	-5
O=C(NCc1cccnc1)c1ccc(COc2ccccc2Br)o1	5.0	-1	5	0	-25	10925	-12
COc1cccc(/C=C2\SC(=S)N(c3cccnc3)C2=O)c1OC	4.5	1	-5	-3	-17	4288	6

Molecules listed so far that have a COOH group (three):
SMILES	RN4220 kill	Sa ugtP lethal	Mtb hypoxia inh	Mtb hypoxia inh growth	PrP UTR inh	Autofluor counter	BJeLR lethal
CCOC(=O)C1=C(C)N(CCCCCC(=O)O)C(=O)NC1c1ccc([N+](=O)[O-])cc1 (configuration not stated)	8.3	3	4	0	-17	2938	2
O=C(O)C1CC1c1ccc(Br)cc1 (configuration not stated)	0.4	-2	3	15	-10	2915	2
NC(=O)CSc1nnnn1CC(CC(=O)O)c1ccccc1 (configuration not stated)	6.5	9	6	6	4	6752	-5

An unsorted share of the library. Share with any hit: about 4.1%.
